Compound activity from PubChem.
HCMV UL50-53 inh – cytomegalovirus nuclear egress complex inhibition; 190,000 compounds, 0.15% hits; inhibition, % (no concentration beside the values); HTRF UL50-UL53 interaction, normalized percent inhibition;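 active means both replicates at 50% or more, plus weaker picks with an unusually low signal ratio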;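 further: stock transfer was 100 nL into about 20 µL; 0% = negative control wells and 100% = wells with untagged competitor protein; inactives centre near -12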
Sa growth 42C – S. aureus growth inhibition. S. aureus RN4220 growth, OD600, 20 h, 42 °C; hits give low values. relative growth, % (test concentration not listed). 170,000 compounds, 0.53% hits. AID 720641;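 active means growth at 42 °C up to 50% and 20 or more points under that at 30 °C, or under 10% at both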;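 further: 300 nL library stock went into each well; scaled to the means of positive and negative controls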
GIV Gai3 FP – blocks GIV peptide binding to rat Galpha-i3; P08753; Galpha-i3/FITC-GIV peptide fluorescence polarization, 90 min; hits give low values; scaled: aluminum fluoride 0%, vehicle 100%; percent of control (FP), % (concentration not given with the values); 210,000 compounds, 0.42% hits; AID 1224905;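 active means replicate mean at 85% of control or lower, very high polarization wells dropped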;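 further: wells of about 15 µL received 100 nL stock; the first replicate is given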
Target sequence (P08753 whole entry, looked up): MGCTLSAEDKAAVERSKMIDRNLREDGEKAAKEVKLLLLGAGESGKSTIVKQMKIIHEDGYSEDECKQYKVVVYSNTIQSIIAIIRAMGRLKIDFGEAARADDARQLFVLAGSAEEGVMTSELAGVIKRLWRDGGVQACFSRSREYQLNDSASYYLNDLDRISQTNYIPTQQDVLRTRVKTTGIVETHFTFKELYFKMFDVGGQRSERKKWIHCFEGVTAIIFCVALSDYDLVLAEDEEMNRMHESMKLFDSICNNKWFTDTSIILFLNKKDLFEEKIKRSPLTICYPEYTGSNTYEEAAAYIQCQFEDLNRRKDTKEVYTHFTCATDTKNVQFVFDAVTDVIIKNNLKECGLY
Sa growth 42C second temp – also measured in Sa growth 42C; calls as there; relative growth, %; measured here: growth at 30 °C;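 optical density after 20 h as mean of two plates; 100% = untreated growth and lower means inhibition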
Starred values were filed as active, the others as inactive; . = no result given; & = joins results of further samples.

SMILES	HCMV UL50-53 inh	Sa growth 42C	Sa growth 42C second temp	GIV Gai3 FP
COc1ccc(C2CC(=O)c3cnc(NCCc4ccccc4)nc3C2)cc1 (stereo not drawn)	.	79	89	103
Cc1cc(OC(C)C(=O)N(Cc2ccco2)Cc2ccco2)ccc1Cl (stereo not drawn)	-7	76	49	99
NC(=O)Nc1ccc(C(=O)Nc2ccc3c(c2)CCC3)cc1	-12	118	87	.
CCOc1ccc(S(=O)(=O)N2CCCC2C(=O)Nc2nccs2)cc1 (stereo not drawn)	-12	.	.	99
COc1ccc(NC(=O)c2cccn2-c2nnc(N3CCCCC3)s2)cc1	.	89	88	97
COc1cccc(CNC(=O)CCS(=O)(=O)c2ccc3c(c2)CC(C)N3C(=O)C2CC2)c1 (stereo not drawn)	.	76	75	104
O=C(CC(c1cccs1)N1Cc2ccccc2C1=O)Nc1ccccc1F (stereo not drawn)	.	106	86	99
O=C(NC1CCN(Cc2ccccc2)CC1)C1CCN(c2cc(-c3ccccc3)ncn2)CC1	-22	.	.	103
CCN1C(=O)C(=Cc2ccc(N(C)C)cc2)C(=O)N(CC)C1=S	.	91	83	125
CNS(=O)(=O)c1cccc(C(=O)OCC(=O)N2CCCc3ccccc32)c1	-14	93	81	.
CC(=O)N1c2ccc(S(=O)(=O)N3CCCC(C(=O)Nc4ccc(C)c(F)c4)C3)cc2CC1C (stereo not drawn)	-18	.	.	110
CCN(CC)CCSc1c(C(C)C)cnc2c1c(=O)n(C)c(=O)n2C	.	79	88	102&106
Cc1cc(C)n(-c2nc3cc(Cl)c(Cl)cc3nc2Nc2ccc(F)cc2C)n1	-8	118	92	109
COc1cc2c(cc1OC)C(c1ccc(Cl)cc1)=NCC2	-61	101	90	98
COc1ccc(C(O)c2nccc3cc(OC)c(OC)cc23)cc1OC (stereo not drawn)	0	98	70	102
Cc1cccc(NC(=O)CN(c2cccc(C(F)(F)F)c2)S(C)(=O)=O)c1	-20	123	94	106
Cn1c(CNc2cccc(Cl)c2)nnc1SCC(=O)OC1CCCCC1	3	157	110	102
CN1CCc2c(sc3[nH]c(=S)n(-c4ccccc4)c(=O)c23)C1	-34	105	91	103
Cc1ccc(C(=O)Nc2cccc(C(=O)O)c2)cc1S(=O)(=O)N1CCCC1	-14	98	90	104
Nc1nc(-c2ccc(F)cc2)cc(C(F)(F)F)n1	.	85	88	99
CCC(Sc1nnc(-c2c[nH]c3ccccc23)n1C)C(=O)OC (stereo not drawn)	.	112	88	107
O=C(NNc1ccccc1)c1cc(-c2cccs2)nn1-c1ccccc1	-4	41	2	.
CCc1ccc(NC(=O)CN2C(=O)CSC2=O)cc1	-10	118	72	101
CCOC(=O)c1c(C)[n+]([O-])c2ccc3c(non3O)c12	-29	78	47	95
CC(C)c1noc(-c2ccccc2OCC(=O)Nc2ccc([N+](=O)[O-])cc2)n1	-20	92	83	103
CCOC(=O)c1ccccc1NC(=O)Cn1c(=O)c(CNc2ccc(C)cc2)cc2ccc(OC)cc21	-7	.	.	110
O=C1NC(c2ccco2)Nc2sc3c(c21)CCN(Cc1ccccc1)C3 (stereo not drawn)	-107	91	81	130
O=C(CCCOc1ccc(Cl)cc1Cl)NCc1ccncc1	10	113	89	.
CC1SC(c2ccc(C(C)C)cc2)N(C)C1=O (stereo not drawn)	-1	94	96	.
COc1ccc(C)cc1NC(=O)CSc1nc(=O)n(Cc2cccnc2)c2c1CCC2	.	97	94	101
Clc1ccccc1C1SCC2Nc3ccccc3CN21 (stereo not drawn)	.	117	65	102
Cc1ccc(C(=O)Nc2cccc(O)c2)cc1S(=O)(=O)N1CCCCCC1	0	99	85	103
COc1cc(NC(=O)c2cc(C(F)(F)F)n(C)n2)cc(OC)c1	-22	.	.	104
COC(=O)c1snc(-c2c(Cl)cccc2Cl)c1C(=O)OC	-4	87	63	106
CCC1OC(=O)[C@H](C)C(=O)[C@H](C)[C@@H](OC2O[C@H](C)C[C@H](N(C)C)[C@H]2O)[C@](C)(OC)C[C@@H](C)C(=O)[C@H](C)[C@H]2N(CCCCn3cnc(-c4cccnc4)c3)C(=O)OC12C (stereo partly drawn)	-46	-1.0*	-0.6*	.
CC(C)(C)OC(=O)Nc1ccc(-c2ccn[nH]2)cc1	-14	84	83	103
O=C(CCCn1c(=O)c2cccn2c2ccccc21)NCCc1ccc(Cl)cc1	-19	100	79	98
CC(=O)c1ccc(C(=O)N(CCCN(C)C)c2nc3c(C)c(C)ccc3s2)cc1	.	122	109	102
CCCOc1cccc(C2c3c(oc4ccc(F)cc4c3=O)C(=O)N2c2nc(C)c(C(C)=O)s2)c1 (stereo not drawn)	5	78	90	103
O=S(=O)(c1ccc(F)c(F)c1)N(c1ccc2c(c1)OCO2)S(=O)(=O)c1ccc(F)c(F)c1	0	93	95	.
COc1cccc(/C=C/C(=O)OCC(=O)NC2CCCCC2)c1	-46	89	85	.
CS(=O)(=O)c1ncc(Cl)c(C(=O)NCc2ccccc2)n1	-18	23	18	100
N#Cc1c(N)oc(-c2cccs2)c1-c1cccs1	-70	93	71	.
COc1ccccc1OCc1nn2c(-c3ccccn3)nnc2s1	-11	.	.	107
O=C(CN1CCN(c2cccc(Cl)c2)CC1)Nc1nccs1	-5	101	78	102
COc1cc(C2N(Cc3ccccc3)CCCN2Cc2ccccc2)ccc1O	-7	129	94	.
Cc1onc(-c2ccccc2)c1C(=O)Nc1cccc(C(F)(F)F)c1	-9	113	87	.
CCOC(=O)c1ccc(NC(=O)Cc2coc3cc(C)cc(C)c23)cc1	-1	113	102	107
Cn1c(=O)n(C/C=C/c2ccccc2)c(=O)c2c1nc1n2CCN1c1ccccc1	.	88	97	107
COc1ccc(NC(=O)CSc2nc3c(oc4ccccc43)c(=O)n2-c2ccc(C)c(C)c2)cc1	-37	109	84	99
Cc1ccc(-c2nc3c(c(SCc4ccc(Br)cc4)n2)Cc2c(CO)cnc(C)c2O3)cc1	.	98	88	101
O=C1N=c2ccc(Br)cc2=C1c1sc(NS(=O)(=O)c2ccccc2)nc1O	20	.	.	109
CCOCCCNC(=O)Cn1ncc2c([nH]c3ccc(C)cc32)c1=O	.	82	93	104
CC1CN(C(=O)C(C)N(C)Cc2nc3ccccc3c(=O)[nH]2)CC(C)O1 (stereo not drawn)	-8	108	96	.
O=C(CSc1oc(-c2ccc(F)cc2)nc1S(=O)(=O)c1ccc(Br)cc1)NC1CCCCC1	-9	92	89	101
N#Cc1n[nH]nc1-c1ccc(OC(=O)c2ccc(Cl)cc2)cc1	0	89	2	96
CCc1ccc(NCc2cc3cc4c(cc3n(CC(=O)Nc3ccc(Cl)cc3)c2=O)OCO4)cc1	.	90	94	108
CC1=C(C#N)C(c2cccc(O)c2)C2=C(CC(c3ccccc3)CC2=O)N1 (stereo not drawn)	-30	83	97	97
C/C(Nc1ccc(Br)cc1)=C(/C#N)C(N)=O	-8	107	88	103
O=C(NCc1ccco1)c1ccc(/C=C2\Oc3ccccc3N(Cc3ccccc3F)C2=O)cc1	.	113	81	103

(further entries)
SMILES	HCMV UL50-53 inh	Sa growth 42C	Sa growth 42C second temp	GIV Gai3 FP
COc1ccc(OC)c(NC(=O)c2ccc(CSc3ncnc4nc[nH]c34)cc2)c1	.	111	58	104
N#Cc1c(-c2ccccc2)cc(-c2ccccc2)nc1N1CCOCC1	2	107	93	102
COC(=O)C1Cc2ccccc2CN1Cc1c(C)n(C)n(-c2ccccc2)c1=O (stereo not drawn)	12	98	99	.
CC(C)OC(=O)c1ccc(COC(=O)CNC(=O)c2ccco2)cc1	9	99	94	.
CC1CCc2c(sc3ncn4c(=S)[nH]nc4c23)C1 (stereo not drawn)	-7	91	82	100
CCC(SC1=NCCS1)C(=O)Nc1ccc(NC(C)=O)cc1 (stereo not drawn)	9	87	74	108
O=C(O)CN(CCc1ccccc1)CC(=O)O	.	116	87	101
Cc1[nH]n(-c2ccccc2)c(=O)c1C=Nc1ccc(O)cc1	.	83	75	100
Cc1nc(C(F)(F)F)ccc1NC(=O)NCCNc1cccc(C(F)(F)F)n1	4	72	77	108
CCCn1c2ccc(C)cc2c2nnc(SCCN(CC)CC)nc21	-49	99	101	106
COc1ccc(N2C(=O)c3ccccc3NC23CCCC3)cc1	-26	92	87	.
COc1cccc2c1oc(=O)c1c(NC(C)=O)nc3c(c12)CCCC3	-4	98	87	103
O=C(COc1nnc(SCCS(=O)(=O)c2ccc(F)cc2)n1C1CC1)c1ccc(F)cc1	-38	101	80	102
Cc1ccc(C)c(NC(=O)Nc2nc(-c3ccccc3)cs2)c1	13	.	.	103
O=C1CCC(=O)N1c1ccc(-c2nc3scc(-c4cccs4)c3c(=O)o2)cc1	-6	.	.	103
COc1ccc(Cl)cc1NC(=O)CN(c1cccc(C)c1C)S(C)(=O)=O	12	105	80	104
Cc1c(C)c(C)c(S(=O)(=O)/N=C/N(C)C)c(C)c1C	11	95	99	105
CC1CCC/C(=C/c2ccc(Cl)cc2)C1=O (stereo not drawn)	.	104	86	102
Cc1ccc(NC(=O)C2CCN(C(=O)c3cnn(-c4ccccc4)c3-n3cccc3)CC2)cc1C	-13	109	86	98
Cc1ccc(S(=O)(=O)NCCC(=O)N2CCN(Cc3ccccc3)CC2)cc1	.	107	94	103
CCOc1ccc(Nc2ncnc3c2cnn3-c2ccc(F)cc2)cc1	.	121	89	104
CCOc1ccc2nc(N3CCCC3)sc2c1	-25	97	84	99
Cc1ccccc1-c1nc2nc(C)c(CC(=O)N3CCCC3)c(C)n2n1	-4	.	.	103
O=c1[nH]c(O)c(N=Nc2ccc(S(=O)(=O)N3CCCCC3)cc2)c(=O)[nH]1	-31	93	91	105
CCN(C(=O)Cc1c(C(=O)O)[nH]c2ccccc12)c1ccccc1	-22	79	79	97
CCNc1nc(NC(C)(C)C)nc(Oc2ccc(=O)n(-c3ccccc3)n2)n1	-14	110	94	108
COc1ccc(C2C(=O)N(C3CCC(C)CC3)CC(=O)N2CCC2=CCCCC2)cc1OC (stereo not drawn)	.	86	84	101
CCn1c(SCC(=O)Nc2ccc(OC)cc2)nnc1C1CC1	-10	101	89	99
Cc1cccc(OC(C)C(=O)Nc2nonc2-c2ccc(Br)cc2)c1C (stereo not drawn)	1	114	87	102
Cc1nnc(SCC(=O)c2cc(C)n(-c3ccc4c(c3)OCO4)c2C)n(N)c1=O	6	117	108	.

Ordered by molar mass (high to low): part of the list above.
SMILES	HCMV UL50-53 inh	Sa growth 42C	Sa growth 42C second temp	GIV Gai3 FP
Cc1ccc(NC(=O)C2CCN(C(=O)c3cnn(-c4ccccc4)c3-n3cccc3)CC2)cc1C	-13	109	86	98
COc1ccc(C2C(=O)N(C3CCC(C)CC3)CC(=O)N2CCC2=CCCCC2)cc1OC (stereo not drawn)	.	86	84	101
Cc1cccc(OC(C)C(=O)Nc2nonc2-c2ccc(Br)cc2)c1C (stereo not drawn)	1	114	87	102
Cc1nnc(SCC(=O)c2cc(C)n(-c3ccc4c(c3)OCO4)c2C)n(N)c1=O	6	117	108	.
O=C1CCC(=O)N1c1ccc(-c2nc3scc(-c4cccs4)c3c(=O)o2)cc1	-6	.	.	103
Cc1ccc(S(=O)(=O)NCCC(=O)N2CCN(Cc3ccccc3)CC2)cc1	.	107	94	103
COc1ccc(Cl)cc1NC(=O)CN(c1cccc(C)c1C)S(C)(=O)=O	12	105	80	104
CCNc1nc(NC(C)(C)C)nc(Oc2ccc(=O)n(-c3ccccc3)n2)n1	-14	110	94	108
CCOc1ccc(Nc2ncnc3c2cnn3-c2ccc(F)cc2)cc1	.	121	89	104
CCN(C(=O)Cc1c(C(=O)O)[nH]c2ccccc12)c1ccccc1	-22	79	79	97
Cc1c(C)c(C)c(S(=O)(=O)/N=C/N(C)C)c(C)c1C	11	95	99	105
CCOc1ccc2nc(N3CCCC3)sc2c1	-25	97	84	99
CC1CCC/C(=C/c2ccc(Cl)cc2)C1=O (stereo not drawn)	.	104	86	102

Next part.
SMILES	HCMV UL50-53 inh	Sa growth 42C	Sa growth 42C second temp	GIV Gai3 FP
O=C(Nc1c(F)cccc1F)c1cnc2sc3c(n2c1=O)CCCC3	2	.	.	112
Cc1nc(-c2cc(S(=O)(=O)NCC(=O)NCc3ccc4c(c3)OCO4)c(C)s2)no1	-9	.	.	103
COc1cc(OC)c(NS(=O)(=O)c2c(C)nc3sc(C)cn3c2=O)cc1Cl	.	104	80	107
O=S(=O)(c1ccc2c(c1)C(=NO)c1cc(S(=O)(=O)N3CCCC3)ccc1-2)N1CCCC1	-17	99	81	99
CC(C)N(c1ccccc1)c1ccc(NC(=O)COC(=O)C2CC2)cc1	-5	81	95	.
COc1cc(Cl)c(C)cc1NC(=O)CSc1nc2ccccc2[nH]1	-4	110	96	.
COC(=O)C(C)(C)ON1C(=O)c2ccccc2C1=O	-30	89	82	99
CCOC(=O)c1cnc(S/C=C/C(=O)c2ccc(C)cc2)nc1N	20	101	90	99
CC(=O)N1CCOc2cc(S(=O)(=O)N3CC=C(c4ccccc4)CC3)c(C)cc21	-20	.	.	109
COCCNC(=O)Cc1ccc(-n2c(=O)c3ccccc3n(CC(=O)NCc3ccccc3)c2=O)cc1	4	.	.	97
Cc1cccc(NC(=O)C2COc3ccccc3O2)c1C (stereo not drawn)	-18	.	.	102
CCC1(C)Cc2ccccc2-c2c1c(=O)n(-c1ccc(C)cc1)c1nnnn21 (stereo not drawn)	-12	107	95	102
COc1ccc(CCNCc2cccn2-c2c(C(=O)O)cnn2-c2ccccc2)c(OC)c1	-9&-3	104	93	101&107
O=C(CCC1CCCC1)N1CCC2(CC1)Nc1cc(F)ccc1-n1cccc12	-12	.	.	114
